NOMO-1 viab = NOMO-1 AML cell viability reduction, primary screen, STK33 inhibitor project, CellTiter-Glo luminescence; 37,000 tested, 7.5% active; NOMO-1 AML viability, 72 h; inhibition, % (no concentration beside the values);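 active = most replicates above 80%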;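 also: wells of about 30 µL received 25 nL stock; 0% = median of vehicle wells and 100% = reference inhibitor level; the first replicate is given; inactives centre near 10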
* marks the source's active call; other numbers are inactive results.

Preview:
SMILES	NOMO-1 viab
C[C@@H]1CN([C@@H](C)CO)C(=O)Cc2cc(NC(=O)Nc3ccc(C(F)(F)F)cc3)ccc2O[C@@H]1CN(C)C(=O)NC1CCCCC1	113*
O=C(COc1ccccc1OC(=O)c1ccc(Cl)cc1)NCc1ccccc1Cl	22
C[C@@H]1CN([C@H](C)CO)C(=O)c2cc(NS(C)(=O)=O)ccc2O[C@@H]1CN(C)S(C)(=O)=O	13
COc1ccc(NC(=O)N(C)C[C@@H]2Oc3ccc(NS(=O)(=O)c4ccc(C)cc4)cc3C(=O)N([C@H](C)CO)C[C@H]2C)cc1	-13
O=C(CSc1ncnc2sc3c(c12)CCCCC3)Nc1ccc2c(c1)OCCO2	3
C[C@@H]1CN([C@@H](C)CO)C(=O)c2cccc(NC(=O)CCCCCC(=O)Nc3ccccc3N)c2O[C@@H]1CN(C)C(=O)NC1CCCCC1	47

The listing (from the top)
SMILES	NOMO-1 viab
C[C@@H]1CN([C@@H](C)CO)C(=O)Cc2cc(NC(=O)Nc3ccc(C(F)(F)F)cc3)ccc2O[C@@H]1CN(C)C(=O)NC1CCCCC1	113*
O=C(COc1ccccc1OC(=O)c1ccc(Cl)cc1)NCc1ccccc1Cl	22
C[C@@H]1CN([C@H](C)CO)C(=O)c2cc(NS(C)(=O)=O)ccc2O[C@@H]1CN(C)S(C)(=O)=O	13
COc1ccc(NC(=O)N(C)C[C@@H]2Oc3ccc(NS(=O)(=O)c4ccc(C)cc4)cc3C(=O)N([C@H](C)CO)C[C@H]2C)cc1	-13
O=C(CSc1ncnc2sc3c(c12)CCCCC3)Nc1ccc2c(c1)OCCO2	3
C[C@@H]1CN([C@@H](C)CO)C(=O)c2cccc(NC(=O)CCCCCC(=O)Nc3ccccc3N)c2O[C@@H]1CN(C)C(=O)NC1CCCCC1	47
C[C@@H]1CN([C@@H](C)CO)C(=O)c2cccc(NS(=O)(=O)c3ccc(Cl)cc3)c2O[C@H]1CN(C)S(=O)(=O)c1ccc(F)cc1	13
CC(Sc1ncnc2nc[nH]c12)c1ccccc1Cl (centres undefined)	41
C[C@H](CO)N1C[C@H](C)[C@@H](CN(C)S(=O)(=O)c2ccc(F)cc2)Oc2ccc(NC(=O)Cc3ccccc3)cc2C1=O	17
COC(=O)c1cc(C)sc1NC(=S)NCCc1ccccc1OC	6
CN(Cc1nc(-c2cccnc2)no1)S(=O)(=O)c1ccc(Br)cc1	27
C[C@H]1CN([C@@H](C)CO)C(=O)Cc2cc(NC(=O)C3CC3)ccc2O[C@@H]1CN(C)S(=O)(=O)c1cn(C)cn1	-17

Retrieved one by one from the entries so far:
SMILES	NOMO-1 viab
COc1ccc(NC(=O)N(C)C[C@@H]2Oc3ccc(NS(=O)(=O)c4ccc(C)cc4)cc3C(=O)N([C@H](C)CO)C[C@H]2C)cc1	-13
C[C@@H]1CN([C@@H](C)CO)C(=O)c2cccc(NC(=O)CCCCCC(=O)Nc3ccccc3N)c2O[C@@H]1CN(C)C(=O)NC1CCCCC1	47

Remaining list, next part:
SMILES	NOMO-1 viab
Cc1noc(C)c1NC(=O)Nc1ccc2c(c1)C(=O)N([C@H](C)CO)C[C@H](C)[C@@H](CN(C)C(=O)C1CCCCC1)OCCCC[C@@H](C)O2	12
Cc1noc(C)c1S(=O)(=O)Nc1ccc2c(c1)C(=O)N([C@H](C)CO)C[C@H](C)[C@H](CN(C)C(=O)Nc1ccc3c(c1)OCO3)O2	-2
NS(=O)(=O)c1ccc(NC(=S)NCc2ccccn2)cc1	-13
COc1ccc(S(=O)(=O)N(C)C[C@H]2Oc3ccc(NS(=O)(=O)c4ccccc4)cc3C(=O)N([C@H](C)CO)C[C@H]2C)cc1	39
C[C@@H]1CN([C@H](C)CO)C(=O)c2cc(NS(=O)(=O)c3ccc(F)cc3)ccc2O[C@@H]1CN(C)Cc1ccc(Oc2ccccc2)cc1	86*
COc1cc(C(C)=O)ccc1OCC(O)Cn1nc(C)c(C(C)=O)c1C (centres undefined)	12
C[C@@H]1CN([C@@H](C)CO)C(=O)c2cc(NC(=O)NC3CCCCC3)ccc2O[C@@H]1CN(C)S(=O)(=O)c1ccc(Cl)cc1	10
C[C@H]1CN([C@@H](C)CO)C(=O)c2cccc(NC(=O)Nc3ccccc3)c2O[C@H]1CN(C)S(=O)(=O)c1cccs1	34
CS(=O)(=O)N(CC(=O)Nc1ccc(F)c(F)c1)c1ccc(Cl)c(C(F)(F)F)c1	36
O=C(CSc1ncnc2sc3c(c12)CCCCC3)NCC1CCCO1 (centres undefined)	16
Cc1noc(C)c1S(=O)(=O)Nc1ccc2c(c1)CC(=O)N([C@@H](C)CO)C[C@H](C)[C@H](CN(C)S(=O)(=O)c1ccc(Cl)cc1)O2	17
C[C@@H]1CN([C@H](C)CO)C(=O)c2cccc(NC(=O)CCCCCC(=O)Nc3ccccc3N)c2O[C@H]1CN(C)S(=O)(=O)c1ccc(Cl)cc1	121*
CN1C(=O)c2ccccc2NC(=O)[C@]12O[C@@H]2c1cccc(O)c1	24
O=c1cc(-c2ccc(O)c(O)c2)oc2cc(O)c(C3OC(CO)C(O)C(O)C3O)c(O)c12 (centres undefined)	-7
C[C@H]1CN([C@@H](C)CO)C(=O)c2cc(NS(=O)(=O)c3ccccc3)ccc2O[C@@H]1CN(C)C(=O)Nc1ccc2c(c1)OCO2	14
CC(=O)N(CN1C(=O)c2ccccc2C1=O)c1ccc2ccccc2c1	32
Cc1noc(C)c1NC(=O)Nc1ccc2c(c1)C(=O)N([C@@H](C)CO)C[C@@H](C)[C@H](CN(C)Cc1ccccc1)O2	9
CC(C)NC(=O)Nc1ccc2c(c1)C(=O)N([C@@H](C)CO)C[C@H](C)[C@@H](CN(C)C(=O)NC(C)C)O2	9
Cc1noc(C)c1S(=O)(=O)Nc1ccc2c(c1)CC(=O)N([C@@H](C)CO)C[C@H](C)[C@@H](CN(C)S(=O)(=O)c1cccs1)O2	-2
CC(C)NC(=O)Nc1ccc2c(c1)CC(=O)N([C@@H](C)CO)C[C@H](C)[C@@H](CN(C)Cc1ccncc1)O2	27
C[C@@H]1CN([C@@H](C)CO)C(=O)c2cc(NC(=O)Cn3cnnn3)ccc2O[C@@H]1CN(C)S(=O)(=O)c1cn(C)cn1	-4
COc1ccc(S(=O)(=O)Nc2ccc3c(c2)CC(=O)N([C@H](C)CO)C[C@@H](C)[C@H](CN(C)C(=O)Nc2ccc4c(c2)OCO4)O3)cc1	18
O=C(NCc1cc2ccccc2[nH]1)c1cc(-c2ccccn2)nc2ccc(Br)cc12	11
Cc1ccc(S(=O)(=O)N(C)C[C@@H]2Oc3c(NS(=O)(=O)c4ccc(Cl)cc4)cccc3C(=O)N([C@H](C)CO)C[C@H]2C)cc1	18
CC1(C)CC(=O)C2=C(C1)N(Cc1cccnc1)C(=O)C2(NC(=O)c1ccc(Cl)cc1Cl)C(F)(F)F (centres undefined)	2
Cc1ccc(S(=O)(=O)N(C)C[C@@H]2Oc3c(cccc3N(C)C)C(=O)N([C@H](C)CO)C[C@@H]2C)cc1	19
CC(=O)c1cccc(NC(=O)Cn2cnc3c2c(=O)n(C)c(=O)n3C)c1	4
C[C@@H]1CN([C@@H](C)CO)C(=O)c2cc(NC(=O)NC3CCCCC3)ccc2O[C@H]1CN(C)Cc1ccncc1	26
COc1ccc(S(=O)(=O)Nc2ccc3c(c2)C(=O)N([C@H](C)CO)C[C@H](C)[C@H](CN(C)S(C)(=O)=O)OCCCC[C@@H](C)O3)cc1	16
COc1ccc(S(=O)(=O)Nc2ccc3c(c2)C(=O)N([C@@H](C)CO)C[C@@H](C)[C@H](CN(C)Cc2ccc(Cl)c(Cl)c2)O3)cc1	118*
Cc1noc(C)c1NC(=O)Nc1cccc2c1O[C@H](CN(C)C(=O)Nc1ccc(F)cc1)[C@H](C)CN([C@@H](C)CO)C2=O	30
C[C@H]1CN([C@@H](C)CO)C(=O)c2cc(NC(=O)Cn3cnnn3)ccc2O[C@@H]1CN(C)Cc1ccc(C(=O)O)cc1	-1
Cc1noc(C)c1NC(=O)Nc1cccc2c1O[C@H](CN(C)S(=O)(=O)c1cn(C)cn1)[C@H](C)CN([C@H](C)CO)C2=O	-8
COc1ccc(C(C)C)cc1S(=O)(=O)n1cnc2cc(C)c(C)cc21	21
Cc1ccc(S(=O)(=O)Nc2ccc3c(c2)C(=O)N([C@H](C)CO)C[C@H](C)[C@@H](CN(C)C(=O)c2ccncc2)OCCCC[C@@H](C)O3)cc1	-2
C[C@@H]1CN([C@@H](C)CO)C(=O)c2cc(NS(=O)(=O)c3cccs3)ccc2O[C@@H]1CN(C)Cc1ccc2c(c1)OCO2	-2
CCCC(=O)Nc1ccc2c(c1)C(=O)N(CCC(=O)O)C2=O	-9
COc1ccc(CN(C)C[C@H]2Oc3ccc(NC(=O)Cc4cn(C)c5ccccc45)cc3C(=O)N([C@@H](C)CO)C[C@H]2C)cc1	53
CCCCN1C(=O)/C(=C2/Sc3ccc(OC)cc3N2C)SC1=S	29
C[C@@H]1CN([C@@H](C)CO)C(=O)c2cc(NS(=O)(=O)c3ccc(Cl)cc3)ccc2O[C@@H]1CN(C)C(=O)Nc1ccccc1	17
Cc1c(Br)c([N+](=O)[O-])nn1C(C)C(=O)NCc1ccco1 (centres undefined)	12
CC(C)NC(=O)Nc1cccc2c1O[C@@H](CN(C)Cc1ccc3c(c1)OCO3)[C@@H](C)CN([C@H](C)CO)C2=O	-2
CN(CC(=O)Nc1ccccc1[N+](=O)[O-])S(=O)(=O)c1ccc(Br)cc1	-22
C[C@H]1CN([C@@H](C)CO)C(=O)c2cccc(NC(=O)C3CCCCC3)c2O[C@H]1CN(C)S(=O)(=O)c1cn(C)cn1	-1
Cc1ccc(S(=O)(=O)NC(C)C(=O)Nc2ccc(F)c(Cl)c2)cc1 (centres undefined)	20
COc1cc(NC(=O)COc2cc(C)c(Cl)c(C)c2)c(C(=O)O)cc1OC	-1
C[C@@H]1CN([C@H](C)CO)C(=O)Cc2cc(NC(=O)C3CCCCC3)ccc2O[C@@H]1CN(C)C(=O)Nc1ccc(F)cc1	36
CC1(C)CC[C@]2(C(=O)O)CC[C@]3(C)C(=CCC4[C@@]5(C)CC[C@H](O[C@@H]6OC[C@H](O)[C@H](O)[C@H]6O)[C@@](C)(CO)C5CC[C@]43C)C2C1 (some centres undefined)	120*
COc1ccccc1C(=O)N(Cc1nc(-c2ccc(Cl)cc2)no1)C(C)C	44
C[C@H](CO)N1C[C@H](C)[C@H](CN(C)S(=O)(=O)c2cn(C)cn2)Oc2c(NC(=O)Nc3ccc(C(F)(F)F)cc3)cccc2C1=O	21
C[C@H](CO)N1C[C@H](C)[C@H](CN(C)S(=O)(=O)c2ccccc2)Oc2ccc(NS(=O)(=O)c3ccc(Cl)cc3)cc2C1=O	21
Cc1noc(C)c1S(=O)(=O)N(C)C[C@H]1Oc2c(NC(=O)C3CC3)cccc2C(=O)N([C@@H](C)CO)C[C@H]1C	-11
C[C@H]1CN([C@@H](C)CO)C(=O)Cc2cc(NC(=O)CCCCCC(=O)Nc3ccccc3N)ccc2O[C@H]1CN(C)CC1CCCCC1	138*
C[C@@H]1CN([C@H](C)CO)C(=O)c2cc(NC(=O)c3ccncc3)ccc2O[C@@H]1CN(C)C(=O)Nc1cccc2ccccc12	20
COc1ccc(CN(C)C[C@@H]2OCCCC[C@@H](C)Oc3ccc(NC(=O)NC(C)C)cc3C(=O)N([C@H](C)CO)C[C@@H]2C)cc1	22
C[C@H](CO)N1C[C@H](C)[C@H](CN(C)CC2CC2)Oc2ccc(NS(=O)(=O)c3ccc(F)cc3)cc2CC1=O	2
C[C@@H]1CN([C@@H](C)CO)C(=O)Cc2cc(NS(=O)(=O)c3cn(C)cn3)ccc2O[C@@H]1CN(C)C(=O)Nc1cccc2ccccc12	12
CCN(CC(=O)Nc1ccc(C(N)=O)cc1)S(=O)(=O)c1ccc(F)cc1	-17
C[C@H]1CN([C@@H](C)CO)C(=O)c2cccc(NC(=O)c3ccncc3)c2O[C@@H]1CN(C)S(C)(=O)=O	20
C[C@H]1CN([C@@H](C)CO)C(=O)Cc2cc(NC(=O)Cc3cn(C)c4ccccc34)ccc2O[C@H]1CN(C)S(C)(=O)=O	3

Brought forward from above: 2 compounds; new compounds follow.
SMILES	NOMO-1 viab
C[C@H]1CN([C@@H](C)CO)C(=O)c2cccc(NC(=O)c3ccncc3)c2O[C@@H]1CN(C)S(C)(=O)=O	20
C[C@H]1CN([C@@H](C)CO)C(=O)Cc2cc(NC(=O)Cc3cn(C)c4ccccc34)ccc2O[C@H]1CN(C)S(C)(=O)=O	3
COc1ccc(OC)c(NC(=O)C(C)N2c3cccc4cccc(c34)S2(=O)=O)c1 (centres undefined)	9
Cn1cccc1CNCCCN1CCOCC1	6
O=C(CSc1nnc(-c2cccnc2)n1-c1ccccc1)Nc1cc(C(F)(F)F)ccc1Cl	24
C[C@@H]1CN([C@@H](C)CO)C(=O)c2cc(NS(C)(=O)=O)ccc2O[C@H]1CN(C)CC1CC1	-9
COc1ccc(-n2c(C)nnc2SCC(=O)Nc2ccc(F)c(Cl)c2)cc1	0
Cc1cc(Br)cc2c1N(C)C(=O)/C2=C1\SC(=Nc2ccc(F)cc2)NC1=O	10
Cc1noc(C)c1NC(=O)Nc1cccc2c1O[C@H](CN(C)CC1CC1)[C@@H](C)CN([C@H](C)CO)C2=O	11
Cc1ccc(S(=O)(=O)Nc2ccc3c(c2)CC(=O)N([C@@H](C)CO)C[C@H](C)[C@@H](CN(C)S(=O)(=O)c2ccc(C)cc2)O3)cc1	26
Cc1ccccc1OCC(=O)NCC(=O)O	18
C[C@@H]1CN([C@@H](C)CO)C(=O)c2cccc(NC(=O)Nc3ccc4c(c3)OCO4)c2O[C@@H]1CN(C)Cc1ccncc1	9
CCC(=O)Nc1ccc2c(c1)N(CC)C(C)(C)CC2C (centres undefined)	99*
C[C@@H]1CN([C@H](C)CO)C(=O)Cc2cc(NS(=O)(=O)c3ccc(F)cc3)ccc2O[C@@H]1CN(C)Cc1ccc(C(=O)O)cc1	36
C[C@@H]1CN([C@@H](C)CO)C(=O)c2cc(NC(=O)CCCN(C)C)ccc2O[C@@H]1CN(C)Cc1ccc2c(c1)OCO2	14
Cc1ccc(CN2C(=O)C(O)(CC(=O)c3c(C)coc3C)c3cc(Cl)ccc32)cc1 (centres undefined)	128*

Some of the compounds tested; count on the stated rates, not on these rows.
